# PABP FP inh: blocks human PABP binding to poly(A) RNA. fluorescence polarization. inhibition, % at 35 µM. actives 1% (n = 290,000). AID 2014;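 active = 50% or more with normal probe brightness, or confirmed in later tests; inconclusive = above 50% with abnormal brightness, or retests that disagree; inactive = below 50% or failed in later tests; about a fifth of its hits are not listed in these tables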;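 also: calls also rest on retests at 20 µM and on dose response follow-up; controls were probe without protein and protein plus probe with vehicle; some compounds called inactive have numbers as strong as hits; many hits fall short of the cut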
# Target sequence (P11940 whole entry, looked up): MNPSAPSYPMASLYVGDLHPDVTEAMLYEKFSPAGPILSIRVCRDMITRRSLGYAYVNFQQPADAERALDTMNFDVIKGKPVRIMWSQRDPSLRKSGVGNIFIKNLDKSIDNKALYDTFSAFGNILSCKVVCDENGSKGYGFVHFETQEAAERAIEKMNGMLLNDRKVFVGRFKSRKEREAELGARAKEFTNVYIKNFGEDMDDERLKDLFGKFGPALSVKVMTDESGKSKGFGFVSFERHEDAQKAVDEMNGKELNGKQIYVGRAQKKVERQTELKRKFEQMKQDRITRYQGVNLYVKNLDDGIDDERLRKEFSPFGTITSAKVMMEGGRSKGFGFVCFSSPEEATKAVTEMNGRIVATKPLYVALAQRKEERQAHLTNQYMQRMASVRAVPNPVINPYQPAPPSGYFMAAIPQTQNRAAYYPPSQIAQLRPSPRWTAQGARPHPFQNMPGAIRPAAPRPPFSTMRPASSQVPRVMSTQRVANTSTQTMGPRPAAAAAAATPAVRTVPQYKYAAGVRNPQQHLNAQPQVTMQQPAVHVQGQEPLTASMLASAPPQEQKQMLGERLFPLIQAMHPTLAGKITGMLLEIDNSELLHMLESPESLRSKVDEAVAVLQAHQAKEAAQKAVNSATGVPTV
# CSC inhib: cancer stem cell inhibition | actives 1.1% (n = 300,000) | cancer stem cell-like cells viability, luminescence | inhibition, % at 7.5 µM;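 active = mean at 75% or more and at least half the replicates too; inconclusive = mean and replicates disagree; tested in HMLE shEcad cells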;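 also: 0% = median of negative and 100% = median of positive control wells; the first replicate is given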
# UUG fidelity: modulators of start codon recognition fidelity in yeast. activity score, % at 18.7 µM. actives 0.13% (n = 350,000). S. cerevisiae UUG-firefly luciferase reporter, luminescence/redox ratio. AID 602363;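 active = replicate mean at a twofold rise or more, about +100% in these data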;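 also: firefly luciferase made from a UUG start codon reports start codon fidelity; reporter light over untreated wells divided by growth signal over untreated wells; some hits fall short of that in this replicate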
# eIF4H inh: inhibitors of RNA binding by human eIF4H. eIF4H fluorescence polarization binding assay. AID 2012. Q15056. inhibition, % at 35 µM. actives 0.94% (n = 290,000);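 active = 50% or more with normal probe brightness, or confirmed in later tests; inconclusive = above 50% with abnormal brightness, or retests that disagree; inactive = below 50% or failed in later tests; about a fifth of its hits are not listed in these tables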;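 also: calls also rest on retests at 20 µM and on dose response follow-up; 0% = protein and probe with vehicle and 100% = probe without protein; strong numbers were not always called active; many hits fall short of the cut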
# HIV Env fusion: HIV envelope-mediated fusion inhibition | HeLa-JRFL Env/CEM21 cell fusion, luciferase | actives 1.1% (n = 360,000) | inhibition, % at 12.3 µM;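 active = mean replicate inhibition score of at least 50 and every replicate individually at or above 50; inconclusive = only one of the two criteria met; inactive = mean below 50 and not all replicates reaching 50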;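 also: 0% = plate neutral controls and 100% = maraviroc near 300 nM; one replicate is shown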
# MT1-MMP act inh: inhibitors of human MT1-MMP activation | P50281 | HT1080 RFP-PRO-GFP cells, GFP/RFP ratio fluorescence, overnight; percent of plate control window, DMSO zero | GFP/RFP ratio change, % at 20 µM | actives 0.061% (n = 360,000) | AID 651647;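 active = GFP/RFP ratio change of at least 30% with cell ATP level not reduced by more than half and red fluorescence within 50% of control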; also: strong numbers were not always called active
#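 Assay system – RFP-PRO-GFP reporter HT1080 cells · Compound dosing – single dose of 20 µM compound, 1% DMSO final · Incubation – overnight compound exposure at 37 °C · Measure – GFP/RFP fluorescence ratio · Benchmarks – DMSO wells and RFP-L50D-GFP cells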
# Rce1 inh: yeast Ras-converting enzyme inhibition | calls only | yeast membranes, quenched prenylated peptide cleavage fluorescence | actives 0.27% (n = 290,000) | Q03530;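 active = fall in fluorescence gain of 50% or more versus controls, with final raw signal at or below 3038400; inconclusive = same 50% fall but final raw signal above 3038400; inactive = fall in fluorescence gain under 50%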;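 also: plate controls were neutral control wells for no effect and wells lacking membranes for full effect; tested at 10 µM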
# MT1-MMP act inh RFP: recorded beside MT1-MMP act inh, whose call it bears; RFP signal change, %; measured here: RFP expression control read;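 0 = vehicle wells; hits needed this value within 50% of zero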
# * hit, by the source's call; i = inactive; u = inconclusive; x = not tested or not shown.
SMILES,PABP FP inh,CSC inhib,UUG fidelity,eIF4H inh,HIV Env fusion,MT1-MMP act inh,MT1-MMP act inh RFP,Rce1 inh
CCSc1nc2c(c(=O)[nH]1)C(C(C)C)C(C#N)=C(N)O2 (stereo unspecified),4.9,6.9,-4.4,0.9,-10.8,0.8,3.3,i
Cc1csc(NC(=O)c2cc3c(s2)CCCC3)n1,5.6,59.1,-77.5,2.7,x,-51.6,-33.4,i
Cc1cccc(NC(=S)N2CCN(S(=O)(=O)c3cccc(F)c3)CC2)c1,-8.9,-11.7,x,2.1,6.7,-1.5,-0.7,i
O=C(CSc1nnc(-c2cccnc2)n1Cc1ccco1)c1ccc(Cl)c(Cl)c1,14.7,13.2,-20.7,6.7,-19.3,4.6,1.5,i
CC(=O)Nc1ccccc1NC(=O)C(F)(F)F,10.9,-9.0,-19.9,0.9,9.6,6.0,4.1,i
CCn1cc(C(=O)O)c(=O)c2cc(F)c(N3CCN(C(=S)NC(=O)c4ccccc4C)CC3)cc21,3.6,7.4,x,-5.6,17.4,-0.6,-2.6,x
Cc1ccc(OCc2ccc(C(=O)NCC3CCCO3)cc2)cc1C (stereo unspecified),x,8.1,-5.4,x,x,-1.1,-8.6,x
CCn1cc(C(=O)NCC(OC)OC)c(=O)c2cc(S(=O)(=O)N3CCCC3)ccc21,4.8,0.8,-0.9,-6.8,3.8,-1.3,4.6,i
NC12CC3CC(C1)CC(O)(C3)C2,11.9,-5.0,-11.8,8.3,x,2.6,7.5,i
COc1ccc(CCNC(=O)CCNC(=O)c2ccc(Br)cc2)cc1OC,1.6,-2.5,x,-0.4,-14.9,5.5,6.9,i

# Compound profiles, from the list above. Order of screens: PABP FP inh	CSC inhib	UUG fidelity	eIF4H inh	HIV Env fusion	MT1-MMP act inh	MT1-MMP act inh RFP	Rce1 inh
# `CCn1cc(C(=O)O)c(=O)c2cc(F)c(N3CCN(C(=S)NC(=O)c4ccccc4C)CC3)cc21` in the list: 3.6	7.4	x	-5.6	17.4	-0.6	-2.6	x
# `O=C(CSc1nnc(-c2cccnc2)n1Cc1ccco1)c1ccc(Cl)c(Cl)c1` in the list: 14.7	13.2	-20.7	6.7	-19.3	4.6	1.5	i
# `CC(=O)Nc1ccccc1NC(=O)C(F)(F)F` in the list: 10.9	-9.0	-19.9	0.9	9.6	6.0	4.1	i
# `Cc1cccc(NC(=S)N2CCN(S(=O)(=O)c3cccc(F)c3)CC2)c1` in the list: -8.9	-11.7	x	2.1	6.7	-1.5	-0.7	i
# `CCSc1nc2c(c(=O)[nH]1)C(C(C)C)C(C#N)=C(N)O2` (stereo unspecified) in the list: 4.9	6.9	-4.4	0.9	-10.8	0.8	3.3	i

# The list continues.
SMILES,PABP FP inh,CSC inhib,UUG fidelity,eIF4H inh,HIV Env fusion,MT1-MMP act inh,MT1-MMP act inh RFP,Rce1 inh
COc1ccc(NC(=S)N/N=C/c2cccn2Cc2ccccc2F)cc1,17.1,-1.2,x,18.2,-3.1,-1.5,-1.7,i
CS(=O)(=O)Nc1ccccc1-c1ccc2nccn2c1,x,x,-10.4,x,6.1,-2.8,4.6,x
Cc1ccc(S(=O)(=O)N(Cc2cc3cccc(C)c3[nH]c2=O)c2ccccc2)cc1,7.7,34.4,-2.5,0.8,3.8,-6.4,0.4,i
COc1ccc(C(=O)N2CCCCC2c2cc(C(=O)Nc3ccc(OC)cc3C)no2)cc1 (stereo unspecified),x,x,-2.5,x,-0.1,10.6,-2.5,x
CC1=C(C(=O)N(C)C)CC(CC(=O)NCc2cccs2)C(=O)N1Cc1ccccc1 (stereo unspecified),x,x,-2.4,x,13.1,-0.2,1.3,x
CNC(=S)Nc1cccc(C(=O)OC)c1,-0.1,-4.1,-21.1,0.2,-13.7,1.7,1.9,i
CN(CC(O)CON=C1c2ccccc2-c2ccccc21)S(=O)(=O)c1ccc(Br)cc1 (stereo unspecified),3.9,97.9*,x,-9.1,15.5,-10.7,-12.3,i
O=S(=O)(c1ccc(Br)s1)N1CCN(c2ncccn2)CC1,-13.2,5.6,-14.4,-6.3,x,-10.4,1.8,i
COc1ccc(CNC(=O)CCn2cccc2)cc1,0.6,7.7,-16.1,2.8,-16.1,0.3,1.5,i
CCCCN1C(=S)NC[C@@H]1Cc1cccc2ccccc12,3.0,14.9,-31.9,-7.8,-8.7,5.6,-3.9,i
CC(C)c1ccc(CC(=O)N2CCC2(C)C(=O)NS(=O)(=O)c2cccc(OC(F)F)c2)cc1 (stereo unspecified),x,x,4.2,x,2.9,-1.1,-1.9,x
COc1ccc(N(CC(=O)NCCSc2ccccn2)S(C)(=O)=O)cc1,-8.4,-2.1,-8.2,-5.9,14.6,3.9,6.6,i
O=C(/C=C/c1ccc(Cl)cc1)Nc1ccc(N2CCCCC2)cc1,3.5,6.7,-20.9,0.2,15.4,16.5,10.3,i
COC(=O)CCC(=O)Nc1nc(-c2ccccc2)cs1,x,-9.6,-3.4,x,4.7,8.5,9.8,i
NC(=O)CN1CCOCCOCCN(CC(N)=O)CCOCC1,-0.3,-12.2,-10.2,3.1,x,1.9,-0.6,i
C/C(=N/NS(=O)(=O)c1ccccc1)c1ccc(NC(=O)C(F)(F)F)cc1,-3.9,-0.4,x,6.5,26.1,-4.7,3.1,i
Cc1cc(/C=C2/SC(=O)N(CC(=O)N3CCCC3)C2=O)c(C)n1C,19.7,x,15.0,8.5,-3.7,-0.8,0.4,i
COc1cc(CN2CCN(c3ccccc3F)CC2)cc(OC)c1O,5.5,-21.0,-12.7,9.0,35.5,-1.9,-2.6,i
Nc1ccc(C(=O)Nc2ccccc2C(=O)O)cc1,8.9,3.3,x,5.6,-42.3,0.8,-0.1,i
O=C(CCCCn1c(=O)c2ccccc2n(CC(=O)Nc2cccc(F)c2)c1=O)NCc1ccco1,5.6,1.9,-9.2,-1.2,x,-0.5,-0.5,i
CCOC(=O)C1=C(COC(=O)CCNS(=O)(=O)c2ccc(NC(C)=O)cc2)NC(=O)NC1C (stereo unspecified),x,7.9,-9.1,x,0.4,1.1,2.8,i
CC(C)CN(CC(C)C)c1nc(N)c(C#N)c(CC#N)c1C#N,7.0,-2.4,1.9,-3.2,x,-5.0,-6.3,i
O=C(COc1cccc2c1CCN(Cc1ccccc1)C2=O)N1CCCCC1,-11.4,12.4,x,-1.5,15.8,2.4,-5.2,i
Cc1ccc(CNC(=O)CN(C(=O)C2(C)CC(=O)N=C3C=CC=CN32)c2cccc(C)c2C)cc1 (stereo unspecified),-2.4,-13.7,-18.5,-8.4,-4.6,-0.9,4.1,u
COc1ccccc1NC(=O)CCC(=O)OCC(=O)c1ccc(C)c([N+](=O)[O-])c1,1.0,x,12.6,-0.5,4.2,0.1,5.3,i
O=C(NCc1ccc(-c2nc3ccccc3s2)cc1)c1cc2ccccc2o1,1.6,-4.5,x,-0.2,x,3.1,3.7,i
COc1ccccc1/C=N/NC(=O)CSc1cc(C)nc2ccccc12,0.9,-6.4,x,2.7,-96.6,-5.7,-15.4,i
Fc1cc(NC(=S)NCc2ccc(CNC(=S)Nc3ccc(Cl)c(F)c3)cc2)ccc1Cl,8.1,7.0,2.2,-2.9,13.3,7.1,-4.6,i
Cc1ccc(CNC(=O)/C=C/C(=O)O)cc1,15.6,-14.2,x,9.4,10.4,-0.9,5.3,i
COc1ccc(CNc2nc3ccccc3n2CCN2CCCCC2)c(OC)c1,8.9,0.9,-28.1,-3.4,-47.1,4.9,0.0,i
COCCNC(=O)c1ccc(-c2cn[nH]c2)c2ccoc12,x,x,-9.8,x,27.7,3.5,0.2,x
Cc1cccc(Nc2c(O)nc[nH]c2=O)c1,x,x,-20.0,x,13.2,1.3,4.3,x
COc1ccc(NS(=O)(=O)c2ccc(Cl)c(C(=O)O)c2)cc1S(=O)(=O)N1CCCCC1,15.7,-11.2,x,5.0,-5.5,-0.2,2.9,i
COC(=O)CSc1nccc(-c2ccc(F)cc2)c1C#N,-2.0,0.2,x,-6.6,-29.7,-1.8,3.8,i
CCn1c(=NC(=O)CSC(C)=O)sc2ccccc21,-1.5,-5.8,x,5.1,x,x,x,i
O=Cc1cnc2ccccc2c1-c1ccccc1,1.7,-1.8,-4.0,-5.2,10.6,-2.7,-2.9,i
CCOc1ccc(-n2c(C)cc(/C=N/Nc3nc(C)cc(=O)[nH]3)c2C)cc1,-2.6,3.7,-7.9,1.1,-0.6,3.0,-3.7,i
COc1ccc(F)cc1-c1cc(C(=O)NC2CCCCC2)[nH]n1,x,x,-17.4,x,-26.1,-2.9,-5.5,x
O=C1C(=O)N(Cc2cccc([N+](=O)[O-])c2)c2ccccc21,1.5,10.2,x,3.2,-43.0,1.9,8.1,i
COc1ccccc1CN(C)C(=O)C1(c2ccc(Cl)cc2)CC1,-1.5,-7.7,-8.9,-0.5,x,0.6,-2.9,i

# Random excerpt: 4 compounds from above
SMILES,PABP FP inh,CSC inhib,UUG fidelity,eIF4H inh,HIV Env fusion,MT1-MMP act inh,MT1-MMP act inh RFP,Rce1 inh
Cc1cccc(Nc2c(O)nc[nH]c2=O)c1,x,x,-20.0,x,13.2,1.3,4.3,x
CCOc1ccc(-n2c(C)cc(/C=N/Nc3nc(C)cc(=O)[nH]3)c2C)cc1,-2.6,3.7,-7.9,1.1,-0.6,3.0,-3.7,i
O=C1C(=O)N(Cc2cccc([N+](=O)[O-])c2)c2ccccc21,1.5,10.2,x,3.2,-43.0,1.9,8.1,i
CCn1c(=NC(=O)CSC(C)=O)sc2ccccc21,-1.5,-5.8,x,5.1,x,x,x,i

# Continuation:
SMILES,PABP FP inh,CSC inhib,UUG fidelity,eIF4H inh,HIV Env fusion,MT1-MMP act inh,MT1-MMP act inh RFP,Rce1 inh
O=C(CSc1nc(-c2ccccc2Cl)ns1)NCc1ccc2c(c1)OCO2,4.2,3.3,x,9.0,-3.3,4.1,3.1,i
CCCc1cc(C(=O)NC2CCCN(Cc3ccccc3F)C2)no1 (stereo unspecified),4.8,2.2,-20.1,-6.3,4.4,0.7,3.7,i
CCCc1nc(SCC(=O)N2CCCC2)c2ccccc2n1,1.8,-5.5,3.1,-10.8,14.3,1.9,2.1,i
O=C(Nc1ccc2c(c1)oc1ccccc12)C1CC1,-2.8,-12.3,-18.1,-2.8,x,5.4,-2.2,i
CN(Cc1cccnc1)C(=O)CC1C(=O)NCCN1Cc1ccc(-c2ccccc2)cc1 (stereo unspecified),-7.1,-12.1,x,7.1,-10.7,3.1,3.4,i
COc1ccc(-n2nnnc2SCC(=O)NCc2cccs2)cc1,9.2,-4.1,x,1.4,3.6,-2.1,0.9,i
COc1ccccc1NS(=O)(=O)c1cccc(C(=O)N2CC(C)OC(C)C2)c1 (stereo unspecified),x,-7.1,-11.8,x,-2.8,-3.0,0.6,i
COc1ccc(S(=O)(=O)N2CCN(c3ccc(F)cc3)CC2)cc1C(=O)N1CCCC1,2.0,7.0,-0.8,-5.1,-4.8,0.6,-0.7,i
O=C(CSc1nc2ccc(Cl)cc2[nH]1)NCCc1ccccc1,47.2,8.6,x,3.9,17.8,0.8,-3.6,i
O=C(CN1CCN(CC(=O)Nc2ccccc2F)CC1)Nc1ccc2c(c1)OCCO2,-12.1,-8.1,x,0.1,5.4,-2.2,0.9,i
CCC(C)C(NC(=O)c1ccc(Cl)cc1Cl)C(=O)O (stereo unspecified),8.2,-12.8,-11.0,10.8,x,6.2,5.1,i
